Sa RN4220 lethal – growth inhibition of S. aureus RN4220, primary screen, OD600; 16 h; inhibition, % (test concentration not listed); actives 0.33% (n = 330,000); AID 1259311, 2017;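 active = z-score of -3 or lower and OD600 up to 0.18 on both plates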;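 also: plate controls were untreated cells for no effect and reference antibiotic for full effect; stock transfer was 100 nL into about 80 µL; one replicate is shown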
ugtP null kill – growth inhibition of ugtP-null S. aureus, primary screen, RN4220 ugtP deletion, OD600 | 16 h; some inactives read as strong as hits | growth inhibition, % (no concentration beside the values) | actives 0.54% (n = 330,000) | AID 1259309, 2017;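 active = z-score under -3 and OD600 up to 0.15 on both plates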;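 also: plate controls were untreated wells for no effect and antibiotic for full effect; wells of about 80 µL received 100 nL stock; the first replicate is given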
Mtb hypoxia rep – PubChem AID 1159583 | M. tuberculosis hypoxia-regulated fluorescent reporter, fluorescence | fluorescence inhibition, % (test concentration not listed) | actives 0.1% (n = 300,000);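 active = 35 to 45% if threefold the growth effect, above 45% if 1.5-fold the growth effect; inactive = the rest, general growth blockers included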;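 also: wells of about 50 µL received 100 nL stock; 0% = vehicle wells and 100% = reference inhibitor wells; whole bacteria with a GFP reporter of the hypoxia response; strong numbers were not always called active; many hits fall short of the cut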
BJeLR viability – MLPCN primary cell-based screen for lethality selective to Ras in HRASV12 cells. inhibition, % (concentration not given with the values). BJeLR (HRASV12) viability, CellTiter-Glo ATP luminescence, 48 h; reference of the scale not given here. actives 0.17% (n = 300,000);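 active = replicate mean above 50%; inconclusive = above 50% but judged a plate artefact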;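 also: 50 nL library stock added to about 25 µL; numbers are from one replicate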
PrP 5UTR inh – inhibition of PrP 5' UTR reporter expression; cell-based PrP 5' UTR mRNA reporter, plate reader; inhibition, % (test concentration not listed); actives 0.35% (n = 340,000);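 active = every replicate at 50% or more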;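 also: 0 = median of the neutral control wells; tested in H4 reporter cells; numbers are from one replicate; inactives centre near -14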
Bead autofluor – counter-screen for toxin protease inhibitors: compound fluorescence | compound autofluorescence counterscreen, microsphere flow cytometry; active compounds read high | fluorescence intensity (test concentration not listed) | actives 3.1% (n = 360,000);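 active = at least 3 SD above the mean of all compounds, about 16000 in these data; inconclusive = too few beads counted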;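 also: 100 nL of 1 mM stock went into each well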
Mtb hypoxia rep growth – also measured in Mtb hypoxia rep; calls as there; growth inhibition, %; measured here: M. tuberculosis growth (absorbance);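 0% = vehicle and 100% = reference antibiotic; read after six days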
Numbers without * were called inactive.

COC(=O)/C(=C\Nc1ccc(Oc2ccc(F)cc2F)nc1)NC(=O)c1ccccc1 was read as Sa RN4220 lethal 4.0, ugtP null kill 1.6, Mtb hypoxia rep 3.7, BJeLR viability -2.5 and Mtb hypoxia rep growth 8.8.
Screening CCOC1=NC(C(=O)O)c2ccccc2/C(=C(/C)Cl)N1 (centres undefined) returned BJeLR viability -11.9, PrP 5UTR inh -4.9 and Bead autofluor 3116.
`C=CCN1C(=O)C2C(C(=O)NC)C3C=CC2(O3)C1C(=O)NCc1ccc(OC)cc1` (centres undefined) gave Sa RN4220 lethal 0.1, ugtP null kill 3.4, BJeLR viability -15.9, PrP 5UTR inh -11.8 and Bead autofluor 4264.
For Cc1cccc(C)c1Nc1nnc(SCC(=O)c2ccc3c(c2)NC(=O)CO3)s1 the results were Sa RN4220 lethal 0.1, ugtP null kill -9.0, Mtb hypoxia rep 2.2, BJeLR viability 1.9, PrP 5UTR inh -11.6, Bead autofluor 9221 and Mtb hypoxia rep growth 5.6.
For Cc1ccc(CNC(=O)COc2ccc(S(=O)(=O)NC(C)C)cc2)cc1 the results were Sa RN4220 lethal 0.5, ugtP null kill 1.3, Mtb hypoxia rep 2.3, BJeLR viability 7.2, PrP 5UTR inh -2.2, Bead autofluor 8011 and Mtb hypoxia rep growth 1.4.
For O=C(CCc1nc2ccccc2c(=O)[nH]1)NCc1cccc(Cl)c1 the results were Sa RN4220 lethal -7.3, ugtP null kill -5.8, Mtb hypoxia rep 4.0, PrP 5UTR inh -21.2, Bead autofluor 3618 and Mtb hypoxia rep growth 11.3.
For CC1(C)C(=O)CC[C@@]2(C)C1=CCC1C2CC[C@]2(C)C(=O)CCC12 (some centres undefined) the results were Sa RN4220 lethal 5.1, ugtP null kill -2.1, Mtb hypoxia rep -2.3, PrP 5UTR inh -0.5, Bead autofluor 4264 and Mtb hypoxia rep growth -2.6.
`CN(C)c1ncc([N+](=O)[O-])cc1C(F)(F)F` gave Sa RN4220 lethal 5.4, ugtP null kill 9.0, Mtb hypoxia rep 10.2, BJeLR viability -2.6, PrP 5UTR inh -26.0 and Mtb hypoxia rep growth -11.4.
`COc1cc(/C=C(/C#N)C(=O)NCc2ccccc2)cc(OC)c1OC` gave Sa RN4220 lethal 2.8, ugtP null kill 13.6, Mtb hypoxia rep 6.4, BJeLR viability -5.6, PrP 5UTR inh 5.8 and Mtb hypoxia rep growth 2.5.
Screening Cc1ccc(-n2cnc3scc(-c4cccs4)c3c2=O)cc1 returned Sa RN4220 lethal 5.9, ugtP null kill -4.6, Mtb hypoxia rep 7.6, BJeLR viability 11.1, PrP 5UTR inh -13.7, Bead autofluor 3190 and Mtb hypoxia rep growth -1.4.

Compounds from the list above that have a Cl atom, in the order listed:
Screening CCOC1=NC(C(=O)O)c2ccccc2/C(=C(/C)Cl)N1 (centres undefined) returned BJeLR viability -11.9, PrP 5UTR inh -4.9 and Bead autofluor 3116.
For O=C(CCc1nc2ccccc2c(=O)[nH]1)NCc1cccc(Cl)c1 the results were Sa RN4220 lethal -7.3, ugtP null kill -5.8, Mtb hypoxia rep 4.0, PrP 5UTR inh -21.2, Bead autofluor 3618 and Mtb hypoxia rep growth 11.3.

(more compounds)
`O=C(CC1(O)CCCCC1)OC1CCCC1` gave Sa RN4220 lethal 7.4, ugtP null kill 1.7, Mtb hypoxia rep 7.6, PrP 5UTR inh -25.1, Bead autofluor 3482 and Mtb hypoxia rep growth 10.3.
`CCCCN1C(=O)NC2NC(=O)NC21` (centres undefined) gave Sa RN4220 lethal -2.0, ugtP null kill 0.7, Mtb hypoxia rep 11.7, BJeLR viability 3.4, PrP 5UTR inh -15.4, Bead autofluor 5016 and Mtb hypoxia rep growth 1.3.
O=C(CC1Sc2ccccc2NC1=O)Nc1cccc(-c2nnc3n2CCCCC3)c1 (centres undefined) was read as Sa RN4220 lethal 6.2, ugtP null kill 0.4, Mtb hypoxia rep 15.7, BJeLR viability -10.0, PrP 5UTR inh -23.8, Bead autofluor 3352 and Mtb hypoxia rep growth 21.9.
`CC1(C)CC(O)(CNCc2ccc3c(c2)OCO3)CCO1` (centres undefined) gave Sa RN4220 lethal -2.0, ugtP null kill 4.4, Mtb hypoxia rep 3.6, BJeLR viability -10.7, PrP 5UTR inh -2.4, Bead autofluor 4401 and Mtb hypoxia rep growth -5.4.
CCc1nc2nc(C)c(NS(=O)(=O)c3ccc(Cl)s3)c(=O)n2[nH]1 was read as Sa RN4220 lethal 2.5, ugtP null kill 2.2, Mtb hypoxia rep 4.8, BJeLR viability -3.6, PrP 5UTR inh -12.8, Bead autofluor 3859 and Mtb hypoxia rep growth 6.6.
For O=C(N/N=C/c1ccc2c(c1)OCO2)C1CC1 the results were BJeLR viability 4.6, PrP 5UTR inh -41.8 and Bead autofluor 5764.
O=C(CNS(=O)(=O)c1ccccc1)NCc1ccccn1 was read as Sa RN4220 lethal 2.8, ugtP null kill 21.1, Mtb hypoxia rep 5.4, BJeLR viability -7.4, PrP 5UTR inh -21.4, Bead autofluor 8189 and Mtb hypoxia rep growth 3.2.
Screening CCCCNC(=O)c1c(CSc2ccccc2)noc1C(=O)NCc1ccccc1 returned Sa RN4220 lethal 0.6, ugtP null kill -6.6, Mtb hypoxia rep 4.7, BJeLR viability 1.7, PrP 5UTR inh -0.6, Bead autofluor 2944 and Mtb hypoxia rep growth 0.3.
Screening CNC(=O)Oc1ccc2c(c1)C(=O)c1ccccc1CO2 returned Sa RN4220 lethal 7.7, ugtP null kill 3.6, BJeLR viability -3.1, PrP 5UTR inh -28.0 and Bead autofluor 4848.
For COc1ccc(C(=O)NC(=S)N(C)Cc2ccccc2)cc1Br the results were Sa RN4220 lethal 2.9, ugtP null kill 1.4, Mtb hypoxia rep 2.6, BJeLR viability 1.3, PrP 5UTR inh -14.1, Bead autofluor 4883 and Mtb hypoxia rep growth 2.2.
For COc1ccccc1NS(=O)(=O)c1cc(NC(=O)c2[nH]c(C)c(C(C)=O)c2C)ccc1N1CCOCC1 the results were Sa RN4220 lethal 3.1, ugtP null kill 7.1, Mtb hypoxia rep 2.9, BJeLR viability 5.9, PrP 5UTR inh -10.1 and Mtb hypoxia rep growth -2.6.
Screening CNC(=O)/C(C#N)=C/c1c(N2CC(C)OC(C)C2)nc2ccccn2c1=O (centres undefined) returned Sa RN4220 lethal 4.2, ugtP null kill -2.1, Mtb hypoxia rep 15.3, BJeLR viability -11.5, PrP 5UTR inh -30.6, Bead autofluor 2516 and Mtb hypoxia rep growth 4.3.
Screening Cc1cccc(N2CCN(C(=O)CCS(=O)(=O)c3ccc4c(c3)NC(=O)C(C)S4)CC2)c1C (centres undefined) returned Sa RN4220 lethal 5.7, ugtP null kill 5.6, Mtb hypoxia rep -15.2, BJeLR viability -13.8, PrP 5UTR inh -9.5, Bead autofluor 2967 and Mtb hypoxia rep growth -0.8.
O=C(/C=C/c1ccc2c(c1)OCO2)N1CCN(c2ccc(Cl)cc2)CC1 was read as Sa RN4220 lethal 4.6, ugtP null kill 5.5, Mtb hypoxia rep 8.8, BJeLR viability 7.8, PrP 5UTR inh -10.9, Bead autofluor 2499 and Mtb hypoxia rep growth 0.5.
`CS(=O)(=O)c1sc(C(=O)NC(=O)Nc2cccc(C(F)(F)F)c2)c2c1C=CCC2` gave Sa RN4220 lethal 0.5, ugtP null kill -1.6, Mtb hypoxia rep -0.3, BJeLR viability -0.5, PrP 5UTR inh -16.2, Bead autofluor 6064 and Mtb hypoxia rep growth 3.1.
Screening O=c1c2cnn(-c3ccccc3Cl)c2ncn1Cc1cccnc1 returned Sa RN4220 lethal 4.7, ugtP null kill 4.8, Mtb hypoxia rep -3.1, BJeLR viability -8.9, PrP 5UTR inh -31.1, Bead autofluor 8053 and Mtb hypoxia rep growth -1.3.
Screening COc1ccc2nc(NC(=O)NC3CCCCC3)sc2c1 returned Sa RN4220 lethal 1.9, ugtP null kill 2.1, Mtb hypoxia rep 0.7, BJeLR viability -5.4, PrP 5UTR inh -43.7 and Mtb hypoxia rep growth -3.6.
Screening CCc1ccccc1S(=O)(=O)Cc1ccc(C(=O)N2CCN(c3ccccn3)CC2)o1 returned Sa RN4220 lethal 2.3, ugtP null kill 3.6, BJeLR viability -4.2, PrP 5UTR inh 6.3 and Bead autofluor 3794.
`O=C(CN1C(=O)c2ccccc2S1(=O)=O)NCCC1=CCCCC1` gave Sa RN4220 lethal 1.5, ugtP null kill -6.5, BJeLR viability -1.3, PrP 5UTR inh -8.1 and Bead autofluor 4929.
Screening Cc1cc(NN=Cc2ccncc2)nc2ccccc12 returned Sa RN4220 lethal 5.6, ugtP null kill -0.4, Mtb hypoxia rep -3.6 and Mtb hypoxia rep growth -3.7.
`O=C(/C=C/c1ccccc1Cl)NNC(=O)c1cccs1` gave Sa RN4220 lethal 0.2, ugtP null kill -3.9, Mtb hypoxia rep 10.0, BJeLR viability -3.6, PrP 5UTR inh -29.8, Bead autofluor 3393 and Mtb hypoxia rep growth 3.0.
`O=C(Nc1cccc(-n2cnnn2)c1)c1ccco1` gave Sa RN4220 lethal 6.1, ugtP null kill -3.4, Mtb hypoxia rep 13.4, BJeLR viability 7.1, PrP 5UTR inh -16.4, Bead autofluor 3866 and Mtb hypoxia rep growth 15.2.
For Cc1cc(N(CCCl)CCCl)ccc1/C=N/N=C(\N)c1cnccn1 the results were BJeLR viability 0.7, PrP 5UTR inh -44.4 and Bead autofluor 5557.
`O=C(NN=Cc1ccccn1)c1ccccc1O` gave Sa RN4220 lethal 5.3, ugtP null kill -10.4, Mtb hypoxia rep 0.5 and Mtb hypoxia rep growth -3.3.
CC(=O)c1ccc(N2CCN(C(=S)NCCCN(C)C)CC2)cc1 was read as Sa RN4220 lethal 1.2, ugtP null kill -1.2, Mtb hypoxia rep -3.0, BJeLR viability 4.9, PrP 5UTR inh -18.4, Bead autofluor 3847 and Mtb hypoxia rep growth 10.3.
Screening COc1ccc(-c2cc(C(=O)Nc3ccc(F)cc3F)no2)cc1 returned Sa RN4220 lethal 2.4, ugtP null kill -0.3, Mtb hypoxia rep 2.7, BJeLR viability 3.9, PrP 5UTR inh -27.9, Bead autofluor 3706 and Mtb hypoxia rep growth -1.5.
COc1ccc(CCNc2nnc(Sc3nnnn3-c3ccccc3)s2)cc1OC was read as Sa RN4220 lethal 0.1, ugtP null kill 7.8, Mtb hypoxia rep 4.1, BJeLR viability 59.6*, PrP 5UTR inh -11.0, Bead autofluor 5933 and Mtb hypoxia rep growth 7.2.
COc1cccc(NC(=O)COc2cccc3c2CCNC3=O)c1 was read as Sa RN4220 lethal 3.4, ugtP null kill -0.3, Mtb hypoxia rep 2.2, BJeLR viability 3.2, PrP 5UTR inh -4.7, Bead autofluor inconclusive and Mtb hypoxia rep growth 5.9.
For O=C(N/N=C\c1ccc([N+](=O)[O-])o1)C1COc2ccccc2O1 (centres undefined) the results were BJeLR viability 2.0, PrP 5UTR inh 9.3 and Bead autofluor 2451.
Screening Cc1c(NC(=S)NN=Cc2cc([N+](=O)[O-])ccc2O)c(=O)n(-c2ccccc2)n1C returned Sa RN4220 lethal 66.3, ugtP null kill 37.0, Mtb hypoxia rep 8.4 and Mtb hypoxia rep growth 5.0.
Cc1ccc(CS(=O)(=O)Cc2ccc(C(=O)NCc3cccnc3)o2)cc1 was read as Sa RN4220 lethal 1.6, ugtP null kill -1.4, Mtb hypoxia rep 4.0, BJeLR viability -8.5, PrP 5UTR inh -8.0, Bead autofluor 5145 and Mtb hypoxia rep growth 15.5.
CC[N+]1=C(C)C(C)(C)c2cc(C)ccc21 was read as Sa RN4220 lethal 9.1, ugtP null kill 10.1, Mtb hypoxia rep 7.9, BJeLR viability 10.4, PrP 5UTR inh -8.6, Bead autofluor 5154 and Mtb hypoxia rep growth 13.1.
`Cc1cc(O)ccc1-c1cnc2ccccc2n1` gave Sa RN4220 lethal 11.0, ugtP null kill 1.5, Mtb hypoxia rep 5.8, BJeLR viability -8.0, PrP 5UTR inh -20.6, Bead autofluor 8252 and Mtb hypoxia rep growth 9.0.
CC1CN(C(C)CO)C(=O)c2cc(NS(C)(=O)=O)ccc2OC1CN(C)CC1CCCCC1 (centres undefined) was read as Sa RN4220 lethal 6.1, ugtP null kill 7.2, Mtb hypoxia rep 6.0 and Mtb hypoxia rep growth 3.5.
For CC(=O)N/N=C/c1cc2c(cc1[N+](=O)[O-])OCO2 the results were BJeLR viability 3.8, PrP 5UTR inh -8.9 and Bead autofluor 4230.

Screening data: PubChem, several laboratories

Rows are unselected. Share with any hit: about 4%.
